Screening data deposited in PubChem BioAssay by National Center for Advancing Translational Sciences (NCATS).
D2 potentiator: positive allosteric modulators of human D2 dopamine receptor; DiscoveRx D2 beta-arrestin cells, luminescence, 90 min; 100% = 57 uM dopamine signal; AID 624464; potentiation, % (concentration not given with the values); P14416; 360,000 tested, 0.23% active; active = potentiation of 50% or more; inconclusive = 30% to 50%; inactive = 30% or less;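 further: compound concentration not given in the record; tested on top of an EC20 dose of dopamine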
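D2 cells co-treated with compound plus 50 nM dopamine (EC20) for 90 min at 37 deg C to detect potentiation. Beta-arrestin recruitment was read as enzyme-fragment luminescence after 1 h at ambient temperature. Full response was set by 57 uM dopamine.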
TRPML1 agonist: activates the human TRPML1 channel; activation, % (no concentration beside the values); Q9GZU1; 410,000 tested, 0.12% active; TRPML1-expressing cells, Ca2+ dye fluorescence, FDSS; host cell line not named in the record; reference of the full effect not given here; in the data active = activation above about 50%; inconclusive = about 30% to 50%; inactive = below about 30%; further: 0% is about no effect; the text of the record puts the active cut at 80%
Target sequence (Q9GZU1 whole entry, looked up): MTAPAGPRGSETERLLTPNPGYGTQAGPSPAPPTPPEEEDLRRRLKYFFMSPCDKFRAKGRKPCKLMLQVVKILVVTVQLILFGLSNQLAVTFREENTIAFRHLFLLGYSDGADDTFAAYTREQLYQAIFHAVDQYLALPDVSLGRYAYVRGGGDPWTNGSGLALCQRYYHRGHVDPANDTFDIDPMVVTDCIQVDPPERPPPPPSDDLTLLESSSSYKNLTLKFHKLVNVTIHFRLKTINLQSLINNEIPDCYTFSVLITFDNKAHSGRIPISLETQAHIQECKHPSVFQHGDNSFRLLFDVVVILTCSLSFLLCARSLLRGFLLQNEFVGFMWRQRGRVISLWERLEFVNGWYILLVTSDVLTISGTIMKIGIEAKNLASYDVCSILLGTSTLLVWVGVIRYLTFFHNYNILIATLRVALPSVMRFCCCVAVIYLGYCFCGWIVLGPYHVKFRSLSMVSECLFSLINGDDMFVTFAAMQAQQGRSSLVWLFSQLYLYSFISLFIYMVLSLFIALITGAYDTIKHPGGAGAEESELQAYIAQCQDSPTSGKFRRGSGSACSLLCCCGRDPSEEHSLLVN
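Calcium fluorescence on an FDSS kinetic reader gave the read-out. Tet-induced TRPML1-DL cells were plated overnight, dye-loaded (Ca8 with quencher, 45-90 min, room temperature, dark), then read 110 s after compound addition, and again 110 s after 4uM final 54-4 (EC80).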
CtBP-E1A inh: inhibitors of CtBP/E1A interaction | AlphaScreen GST-E1A/His-CtBP binding, 1536-well; stronger effect = lower value; control for the full effect not named in the record | activity change, % (no concentration beside the values) | 340,000 tested, 0.49% active | AID 651724; in the data active means activity change below about -65%; inconclusive means about -30% to -65%; inactive means above about -30%; further: on the % scale 0 is the no-effect control and ±100 the full control effect; compound concentration not given in the record
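GST-E1A and His-tagged CtBP (125 nM each as 5X stock) were preincubated with pin-transferred compound for 2 h at 37 °C in the dark, then glutathione donor and nickel acceptor beads were added for 1 h before AlphaScreen reading.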
TRPV1 PAM: potentiators of human vanilloid receptor 1 (TRPV1) | Q8NER1 | TRPV1-expressing cells, Fluo-8 calcium influx, capsaicin EC20 potentiation; host cell line not named in the record; control for the full effect not named in the record | potentiation, % at 8.33 µM | 320,000 tested, 0.02% active | AID 540277; active means potentiation above 80%; inconclusive means 30% to 80%; inactive means below 30%; further: 0% is about no effect
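Cells expressing TRPV1 were dye-loaded with Fluo-8 and read kinetically: 10 s baseline, 3 min after compound (agonist portion), then 2 min after EC20 capsaicin (allosteric enhancer portion). Calcium-bound dye fluorescence at 480/520 nm.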
Six1-Eya2 blk: blocks human Six1 binding to Eya2; Q15475+O00167; AlphaScreen GST-Six1/His-Eya2 binding, biochemical; stronger effect = lower value; control for the full effect not named in the record; activity change, % (test concentration not listed); 360,000 tested, 0.56% active; AID 651725; in the data active = activity change below about -65%; inconclusive = about -30% to -65%; inactive = above about -30%; further: on the % scale 0 is the no-effect control and ±100 the full control effect; compound concentration not given in the record
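AlphaScreen with GST-Six1 and His-Eya2 (5X mix: 250 nM and 500 nM), glutathione donor and nickel acceptor beads; buffer 50 mM Tris pH 8.0, 300 mM NaCl, 1 mM TCEP; 1 h at 37 C in the dark.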
TRPML1 blocker: blocks the human TRPML1 channel. Q9GZU1. TRPML1-inducible cells, Ca2+ dye fluorescence, FDSS; stronger effect = lower value; inhibition of EC80 agonist-evoked calcium signal. activity change, negative = inhibition, % (no concentration beside the values). 390,000 tested, 0.02% active; in the data active means activity change below about -50%; inconclusive means about -30% to -50%; inactive means above about -30%;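 further: stimulus is agonist 54-4 at its EC80 concentration; on the % scale 0 is the no-effect control and ±100 the full control effect; compound concentration not given in the record; the text of the record puts the active cut at -80%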
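Tet-induced TRPML1-DL cells loaded with Ca8 no-wash calcium dye were read kinetically on FDSS. Compound addition was followed by EC80 agonist 54-4 (4 uM final); inhibition was read over 110 s.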
An asterisk follows results filed as active; ? = inconclusive; . = no result given. Outcome played no part in choosing rows; 0.95% or so of the library scored in one or more.

canonical_smiles | TRPV1 PAM | TRPML1 blocker | CtBP-E1A inh | D2 potentiator | TRPML1 agonist | Six1-Eya2 blk
CN(C)CCOC(=O)c1ccc2[nH]c3c(c2c1)CSCC3 | 16.2 | -1.2 | -4.2 | -4.6 | 0.3 | -9.0
COc1ccc(CNC(=O)C(c2ccc(C)cc2)N(Cc2cccs2)C(=O)c2ccc3c(c2)OCCO3)cc1 (stereo not drawn) | -7.8 | -2.0 | -7.0 | 2.5 | 4.5 | -20.6
O=C(NCc1ccccc1)c1ccc(CN(c2ccccn2)S(=O)(=O)c2ccccc2)cc1 | 2.4 | -4.6 | -7.5 | -13.4 | -0.7 | -12.1
Cc1sc(-c2c(C#N)c(N)nc3c2CCCCCC3)cc1[N+](=O)[O-] | . | -2.0 | 3.6 | -1.8 | 0.7 | 2.3
Cc1ccc2nc(-c3ccccn3)cc(C(=O)N3CCN(c4ncccn4)CC3)c2c1 | 1.1 | -0.4 | 11.5 | 2.4 | -0.6 | 4.1
CC(C)(C)OC(=O)NNC(=O)C12CC3CC(CC(C3)C1)C2 | -4.2 | -1.7 | 0.3 | -5.1 | 0.6 | 7.1
Cc1cccc(NC(=O)C(C)Sc2nnc(-c3cccnc3)o2)c1 (stereo not drawn) | -1.2 | -4.8 | -6.3 | -3.0 | -0.3 | -11.9
C/C(=N\NC(=O)c1ccc(CN2CCOCC2)cc1)c1ccc(NC(=O)c2ccccc2)cc1 | -15.7 | -18.0 | 2.6 | 0.8 | -0.4 | -10.3
CCOc1ccc(S(=O)(=O)NCCC(=O)NCC2CCCO2)cc1 (stereo not drawn) | -0.1 | -5.1 | -19.5 | 1.2 | 0.2 | 9.2
CCOC(=O)N1CCC(NC(=O)c2cn(-c3ccc(OC)cc3)c(=O)c3ccccc23)CC1 | 1.9 | -19.4 | -2.1 | -3.5 | 7.7 | 0.8
CCCCCC(/C=N/Nc1ccc(S(=O)(=O)N2CCOCC2)cc1[N+](=O)[O-])=C\c1ccccc1 | 17.9 | -8.1 | -5.6 | 6.4 | -1.2 | -9.6
Cc1cc(NCCOCCO)n2c(nc3ccccc32)c1C#N | ? | 25.2 | ? | 3.0 | 0.0 | -24.6

Copied from the list.
For Six1-Eya2 blk, COc1ccc(CNC(=O)C(c2ccc(C)cc2)N(Cc2cccs2)C(=O)c2ccc3c(c2)OCCO3)cc1 (stereo not drawn) has the entry -20.6
For CtBP-E1A inh, CCOc1ccc(S(=O)(=O)NCCC(=O)NCC2CCCO2)cc1 (stereo not drawn) has the entry -19.5

Next entries follow.
canonical_smiles | TRPV1 PAM | TRPML1 blocker | CtBP-E1A inh | D2 potentiator | TRPML1 agonist | Six1-Eya2 blk
O=C(NC1CCCc2ccccc21)c1ccc(Br)cc1 (stereo not drawn) | -17.0 | -2.8 | 7.4 | -15.2 | 4.0 | 0.9
Cc1[nH]n(C2=NCCS2)c(=O)c1N=Nc1cccc(C(F)(F)F)c1 | 3.1 | -4.2 | -6.8 | 1.6 | 2.0 | -6.8
CCOC(=O)C1CCN(Cc2ccc(F)c(F)c2)CC1 | -6.1 | -15.3 | 5.9 | -14.8 | 0.8 | 4.9
CCC(Sc1nc(C)cc(=O)[nH]1)C(=O)Nc1ccc(Cl)cn1 (stereo not drawn) | . | -6.7 | 2.1 | -3.7 | 0.3 | 8.4
CN(C)c1nc(SCCOC(=O)COc2ccc(Cl)cc2Cl)nc(N(C)C)n1 | -3.2 | 0.4 | 15.0 | -10.8 | 1.0 | 18.3
CC(C)(C)n1nnnc1C(c1cccs1)N(Cc1cccnc1)Cc1ccccc1Cl (stereo not drawn) | -3.8 | 10.4 | -1.5 | -10.5 | 0.9 | -9.3
Cc1ccc(COc2ccccc2-c2cc(C(=O)N/N=C/c3cccnc3)[nH]n2)cc1 | 25.9 | 25.3 | -15.2 | -5.5 | 3.3 | -10.8
CC(C)(C)c1ccc(S(=O)(=O)NC(=O)C2(C)CCN2C(=O)C2CCCCC2)cc1 (stereo not drawn) | . | . | 8.6 | -12.6 | 0.2 | 4.0
Nc1nc2n(n1)C(=O)CC(c1ccc(Cl)cc1)N2 (stereo not drawn) | -9.5 | -3.0 | 7.6 | -2.0 | -0.3 | -0.3
Cc1[nH]c2ccccc2c1/C=N/NC(=O)CNC(=O)c1ccccc1 | -0.4 | 22.2 | 10.1 | -4.2 | 5.2 | -6.1
CSc1ccc(S(=O)(=O)NCC(=O)OCC(=O)N2CCCC2=O)cc1[N+](=O)[O-] | -0.8 | 24.5 | -4.4 | -16.1 | 0.6 | 1.2
COc1ccc(Nc2c(-c3cccc(OC)c3)nc3nc(C)cc(C)n23)cc1 | . | . | -8.3 | . | -0.9 | 0.5

Twelve structures already listed, ordered by count of non-hydrogen atoms, smallest number first:
canonical_smiles | TRPV1 PAM | TRPML1 blocker | CtBP-E1A inh | D2 potentiator | TRPML1 agonist | Six1-Eya2 blk
Nc1nc2n(n1)C(=O)CC(c1ccc(Cl)cc1)N2 (stereo not drawn) | -9.5 | -3.0 | 7.6 | -2.0 | -0.3 | -0.3
CCOC(=O)C1CCN(Cc2ccc(F)c(F)c2)CC1 | -6.1 | -15.3 | 5.9 | -14.8 | 0.8 | 4.9
CC(C)(C)OC(=O)NNC(=O)C12CC3CC(CC(C3)C1)C2 | -4.2 | -1.7 | 0.3 | -5.1 | 0.6 | 7.1
CCC(Sc1nc(C)cc(=O)[nH]1)C(=O)Nc1ccc(Cl)cn1 (stereo not drawn) | . | -6.7 | 2.1 | -3.7 | 0.3 | 8.4
Cc1cc(NCCOCCO)n2c(nc3ccccc32)c1C#N | ? | 25.2 | ? | 3.0 | 0.0 | -24.6
Cc1cccc(NC(=O)C(C)Sc2nnc(-c3cccnc3)o2)c1 (stereo not drawn) | -1.2 | -4.8 | -6.3 | -3.0 | -0.3 | -11.9
Cc1[nH]c2ccccc2c1/C=N/NC(=O)CNC(=O)c1ccccc1 | -0.4 | 22.2 | 10.1 | -4.2 | 5.2 | -6.1
CSc1ccc(S(=O)(=O)NCC(=O)OCC(=O)N2CCCC2=O)cc1[N+](=O)[O-] | -0.8 | 24.5 | -4.4 | -16.1 | 0.6 | 1.2
CC(C)(C)c1ccc(S(=O)(=O)NC(=O)C2(C)CCN2C(=O)C2CCCCC2)cc1 (stereo not drawn) | . | . | 8.6 | -12.6 | 0.2 | 4.0
Cc1ccc(COc2ccccc2-c2cc(C(=O)N/N=C/c3cccnc3)[nH]n2)cc1 | 25.9 | 25.3 | -15.2 | -5.5 | 3.3 | -10.8
CCOC(=O)N1CCC(NC(=O)c2cn(-c3ccc(OC)cc3)c(=O)c3ccccc23)CC1 | 1.9 | -19.4 | -2.1 | -3.5 | 7.7 | 0.8
CCCCCC(/C=N/Nc1ccc(S(=O)(=O)N2CCOCC2)cc1[N+](=O)[O-])=C\c1ccccc1 | 17.9 | -8.1 | -5.6 | 6.4 | -1.2 | -9.6

(more compounds)
canonical_smiles | TRPV1 PAM | TRPML1 blocker | CtBP-E1A inh | D2 potentiator | TRPML1 agonist | Six1-Eya2 blk
Cc1c(O)ccoc1=O | 10.9 | . | 8.4 | 7.5 | . | -0.7
Cc1ccc(OCC(=O)NCCN2CCCC2)cc1 | 8.9 | 24.8 | -8.8 | -41.6 | 1.7 | -3.6
NS(=O)(=O)c1ccc(CCNCc2cc(Cl)ccc2OCc2ccccc2)cc1 | -11.7 | -6.6 | -17.6 | -11.6 | 0.9 | -6.3
CCOc1ccc(NC(=O)c2ccccc2NC(=O)c2cccnc2)cc1 | -3.7 | -5.1 | -8.6 | -3.7 | 1.2 | 4.0
NC1=NC(=O)C2(COC(c3cccc([N+](=O)[O-])c3)OC2)S1 (stereo not drawn) | 5.1 | -1.5 | 3.4 | -0.9 | -0.5 | -0.8
COc1ccc(C(=O)c2c(-c3ccc(OC)cc3)oc3ccccc23)cc1 | 1.9 | -10.1 | 11.8 | -13.4 | 0.8 | 39.7
COc1ccc(Cl)cc1NS(=O)(=O)c1ccc2c(c1)NC(=O)CCS2 | -13.7 | 28.7 | . | -8.2 | 0.4 | 6.1
